# Assay outcomes as filed in PubChem.
# MenB inh: blocks the Mycobacterium tuberculosis MenB enzyme. P9WNP5. MenB enzyme assay, absorbance read-out; some hits fall short of the stated cut. inhibition, %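 (about 12 µg/mL by stock and volumes)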. 100,000 compounds, 0.43% hits. AID 540299;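 active = mean of two replicates above 30%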;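 note: 0% = no compound and 100% = wells with inactive enzyme; the first replicate is given; strong numbers were not always called active; inactives centre near -10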
# Mtb MbtI inh: blocks the Mycobacterium tuberculosis siderophore enzyme MbtI. purified MbtI enzyme, fluorescence intensity read-out. inhibition, %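 (about 17 µg/mL by stock and volumes)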. P9WFX0. 100,000 compounds, 0.89% hits;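 active = above 50% in both replicates, above 80% if mildly self-fluorescent; inactive = the rest, strongly fluorescent compounds included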;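 note: 0% = mean of negative and 100% = mean of positive controls; one replicate is shown; some compounds called inactive have numbers as strong as hits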
# Target sequence (P9WFX0 whole entry, looked up): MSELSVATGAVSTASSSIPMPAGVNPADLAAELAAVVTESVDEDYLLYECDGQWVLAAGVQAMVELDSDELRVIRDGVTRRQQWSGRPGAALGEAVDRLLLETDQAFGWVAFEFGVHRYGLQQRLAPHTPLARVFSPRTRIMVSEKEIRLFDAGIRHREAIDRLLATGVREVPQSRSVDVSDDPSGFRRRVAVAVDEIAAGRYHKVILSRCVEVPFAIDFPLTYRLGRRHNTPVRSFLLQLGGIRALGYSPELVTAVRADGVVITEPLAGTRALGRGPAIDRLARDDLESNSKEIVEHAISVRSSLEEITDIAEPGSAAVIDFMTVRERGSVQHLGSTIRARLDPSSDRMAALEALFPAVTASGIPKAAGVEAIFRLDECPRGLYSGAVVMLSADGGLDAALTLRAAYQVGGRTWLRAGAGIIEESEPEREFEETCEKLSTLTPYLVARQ
# Polio RdRp inh: poliovirus RNA polymerase inhibition; AID 588519; poliovirus polymerase elongation, fluorescence polarization; stronger effect = lower value; % elongation, % (compound at 16.7 µg/mL); 150,000 compounds, 0.66% hits; P03300; in the data active = % elongation below about 90%; note: some results filed as inactive read as strong as hits
# Target sequence (P03300 1749-2209 limits assumed): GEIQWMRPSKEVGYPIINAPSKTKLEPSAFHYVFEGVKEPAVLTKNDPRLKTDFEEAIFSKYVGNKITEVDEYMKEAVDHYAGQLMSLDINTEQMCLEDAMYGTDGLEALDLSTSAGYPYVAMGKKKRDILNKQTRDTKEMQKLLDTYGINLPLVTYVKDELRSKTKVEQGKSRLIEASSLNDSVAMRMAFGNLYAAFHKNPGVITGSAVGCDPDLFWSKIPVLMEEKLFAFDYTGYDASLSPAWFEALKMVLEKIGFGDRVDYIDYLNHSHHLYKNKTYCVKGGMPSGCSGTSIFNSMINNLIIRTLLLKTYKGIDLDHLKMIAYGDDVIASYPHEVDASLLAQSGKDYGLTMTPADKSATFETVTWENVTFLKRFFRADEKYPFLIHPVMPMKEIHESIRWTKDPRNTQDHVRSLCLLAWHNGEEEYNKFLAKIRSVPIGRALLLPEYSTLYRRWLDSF
# Polio RdRp inh intensity: further read-out of Polio RdRp inh, marked with its call; % elongation; measured here: total intensity read-out; formula for this scale not given here;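 total fluorescence in place of polarization; lower means less elongation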
# * = called active by the depositor; i = inactive; · = no result given; & = joins results of further samples.
SMILES,MenB inh,Mtb MbtI inh,Polio RdRp inh,Polio RdRp inh intensity
COc1cc(C(=O)Nc2sc(C(=O)N3CCOCC3)c(C)c2C#N)cc(OC)c1OC,-25,19,101,103
O=C(Cc1ccccc1)N1CCN(C2CCCC2)CC1,-37,1,103,100
COc1ccccc1CNc1ccc2c(c1)ncn2C(C)C,-7,89,95,100
CN(c1ccc(C(=O)NCC2CCCO2)cc1)S(C)(=O)=O (configuration not stated),-42,-12,103,99
CCOc1ccccc1/C=C/C(=O)NCC(=O)N1CCC(N(C)C2CCCC2)CC1,-4,93,99,104
Cc1cc(NC(=O)Cc2ccccc2)no1,-30,-6,102,103
Cc1[nH]c(C)c(S(=O)(=O)NC(C)(C)C)c1C(=O)N1CCCC1,-1,6,99,101
Cc1ccc(-n2c(N)c(C#N)c3nc4ccccc4nc32)cc1C,-35,12,102,99
O=C(Nc1ccc(-n2cncn2)cc1)c1ccccc1N1CCOCC1,-13,7,102,99
CC(CN1CCCCC1)NC(=O)c1cccs1 (configuration not stated),-24,-2,100,100
CC1CCN(C(=O)/C(=C/C=C\c2ccccc2)NC(=O)c2ccccc2)CC1,-18,·,106,108
CCOC(=O)c1c(C)cc2ccccn12,·,i,101,96
Cc1ccc(/C=C2/Sc3ccccc3NC2=O)cc1,2,-3,100,108
Nc1nc2c(nc(N3CCCCC3)n2[C@@H]2O[C@H](CO)[C@@H](O)[C@H]2O)c(=O)[nH]1,-10,12,99,100
Cn1c2c(c3ccccc31)CC/C2=N\O,15,16,102,102
O=c1sc2ccccc2n1CCCOc1ccccc1,-16,2,104,102
CC12CCC(C/C1=N/OC(=O)c1cc3ccccc3o1)C2(C)C (configuration not stated),-39,-1,98,100
Cc1ccc2c3c(ccc2n1)NC1=C(C(=O)CCC1)C3c1ccc(O)cc1 (configuration not stated),4,·,96,104
O=C(CC(c1ccccc1)c1ccccc1)N1CCc2ccccc2C1,-11,-4,102,105
CC(C)(C)C1=NOC(O)(C(F)(F)F)C1 (configuration not stated),-15,0,103,101
COc1ccc(C(O)C23CC4CC(CC(C4)C2)C3)cc1 (configuration not stated),·,-5,101,103
CCCCC1=NN(C(=O)c2ccccc2)C(O)(C(F)(F)F)C1 (configuration not stated),-38,-13,103,107
Cc1c(C#N)c(N)n(CCN2CCOCC2)c1C,-18,-11,74,191
CC(=O)OCC(=O)NCc1ccccc1Cl,-35,-13,100,111
NCCCCOc1ccc(F)cc1,-15,-10,107,103
COc1ccc(/C(N)=N/OC(=O)c2c(-c3ccccc3Cl)noc2C)cc1,-7,6,103,102
CC(/C=N/N1CCOCC1)=C\c1ccccc1,4,9,106,112
O=C(CCC1=NS(=O)(=O)c2ccccc2N1)NC1CCCCCCC1,6,15,103,101
c1csc(-c2nnc(CSc3nnc(-c4ccc5c(c4)OCO5)o3)o2)c1,-32,6,97,97
NCCCS(=O)(=O)O,-6,-4,102,102
O=C1CN(CC(=O)Nc2ccc(C(F)(F)F)cc2)CCN1,-13,-1,·,·
CC(=O)N1CCN(C(=O)c2ccccc2CSc2nc(C)cs2)CC1,4,-44,100,99
CN(C)S(=O)(=O)N1CCC(c2nn(-c3ccccc3)c(=O)o2)CC1,3,-10,100,103
O=C(NC(=S)N1CCN(Cc2ccccc2)CC1)c1ccccc1,-11,13,98,99
N#CCNC(=O)c1ccc(-c2ccccc2)cc1,-15,·,105,108
CN1CCC(OC(=O)c2ccc(F)cc2)CC1,-6,·,107,105

# Seven entries from above, with two lines to a compound:
# Values run as follows: MenB inh	Mtb MbtI inh	Polio RdRp inh	Polio RdRp inh intensity
- Cc1ccc(/C=C2/Sc3ccccc3NC2=O)cc1
 : 2	-3	100	108
- NCCCS(=O)(=O)O
 : -6	-4	102	102
- Cc1cc(NC(=O)Cc2ccccc2)no1
 : -30	-6	102	103
- O=C(CCC1=NS(=O)(=O)c2ccccc2N1)NC1CCCCCCC1
 : 6	15	103	101
- Cc1c(C#N)c(N)n(CCN2CCOCC2)c1C
 : -18	-11	74	191
- Cc1[nH]c(C)c(S(=O)(=O)NC(C)(C)C)c1C(=O)N1CCCC1
 : -1	6	99	101
- COc1ccc(C(O)C23CC4CC(CC(C4)C2)C3)cc1 (configuration not stated)
 : ·	-5	101	103

# Carrying on.
SMILES,MenB inh,Mtb MbtI inh,Polio RdRp inh,Polio RdRp inh intensity
O=C(c1ccccc1)c1ccc(C(=O)c2ccccc2)cc1,1,·,82*,81*
CN(C)C1(CNC(=O)COc2ccc3oc4c(c3c2)CCCC4)CCCCC1,-9,13,100,88
Cn1cc(/C=C2\SC(=NC3CCCCC3)NC2=O)cn1,16,11,101,93
COc1ccc(Cl)cc1S(=O)(=O)N1CCN(C23CC4CC(CC(C4)C2)C3)CC1,-5,·,104,107
COc1cccc(C2NC(=O)NC3=C2CCc2ccccc23)c1 (configuration not stated),6,7,99,104
OC1C2C3CC4C2C(O)C2C1C3C42 (configuration not stated),-24,6,100,109
NS(=O)(=O)c1ccc(N/C=C2/CCCCC2=O)cc1,-41,-1,101,102
Cc1ccccc1Cn1c(=O)n(CCC(=O)NCCc2ccccc2)c(=O)c2ccccc21,-17,6,103,101
O=c1[nH]c(=O)n([C@H]2CC(O)[C@@H](CO)O2)cc1Br (some centres not stated),-9,-6,105,110
O=C(O)C(Cc1ccc(O)cc1)NC1CCS(=O)(=O)C1 (configuration not stated),6,-4,102,102
CCN1CCCC1CNC(=O)c1ccc2c(=O)n3c(nc2c1)CCCCC3 (configuration not stated),-1,3,103,106
Cc1nc2ccccn2c1/C(O)=C1\C(=O)C(=O)N(CCCN2CCOCC2)C1c1cccc(F)c1 (configuration not stated),-80,2,100,103
CCCCN(C1CCN(C(C)=O)CC1)S(=O)(=O)c1csc(C(N)=O)c1,-32,-8,102,101
O=C1CN(C(=O)CSc2nnc(-c3ccccc3)n2-c2ccccc2)c2ccccc2N1,-1,-28,101,104
S=c1[nH]nc(-c2ccccc2)n1/N=C/C=C/c1ccco1,-14,19,102,101
Cc1ccc2nc(Nc3ccccc3)nc(-c3ccccc3)c2c1,-46,6,104,107
CCOC(=O)NNc1ncc(C(F)(F)F)cc1Cl,-4,9,102,97
COC1=CC(=O)OC(/C=C/c2ccccc2)C1 (configuration not stated),-5,1,102&101,100&99
COC(=O)c1ccc(CN(c2ccc(OC)cc2)S(=O)(=O)c2cccc(C)c2)o1,-21,5,101,109
CCCCN(C)c1nnc(NC(=O)Nc2ccc(CC)cc2)s1,6,3,100,102
O=C(c1ccc(F)cc1)C1CCN(S(=O)(=O)c2ccc(F)cc2)CC1,-5,-12,103,104
Cc1cc2oc(=O)cc(CCl)c2cc1C,·,-13,102,105
COc1ccc(C2=NC(C(F)(F)F)(C(F)(F)F)N=C(c3ccccc3C)O2)cc1,-12,-4,99,101
CN1C(=O)/C(=C\C=C\c2ccccc2Cl)SC1=S,-13,·,103,111
O=C(NCC1CCN(C2CCCC2)C1)c1ccc(N2CCCS2(=O)=O)cc1 (configuration not stated),-5,-30,101,104
COc1ccc(-c2ocnc2C(=O)NCCc2ccccc2)cc1,8,124,100,102
CN1C2CCCC1CC(=O)C2,-5,-10,101,99
O=S(=O)(NC1CCCC1)c1ccc(-n2cccn2)cc1,4,-2,99,101
CC(C)C12CCCC(C(=O)O)(CCC1)C2,·,-1,101,96
Cc1cc(C)c2c(N)c(C(=O)c3ccccc3O)sc2n1,-45,-1,104,107
Cc1cc2nc(NCC3COc4ccccc4O3)c3ccccc3n2n1 (configuration not stated),-36,102,·,·
Cc1ccc(/C=C2\SC(=S)N(C(C(=O)O)C(C)C)C2=O)cc1 (configuration not stated),-326,-3,102,97
CCOC(=O)c1c[nH]c2c(C)cccc2c1=O,2,-1,102,102
Cc1cc(/C=C/C(=O)N(C)CC2COc3ccccc3O2)c(C)n1Cc1ccco1 (configuration not stated),-29,21,106,105
NC(=S)Cc1nc(-c2ccccc2)cs1,-53,10,97,106
Nc1c(C(=O)NC2CCCCC2)sc(=S)n1-c1ccccc1,9,56*,97,101
CC(=O)Nc1ccc(S(=O)(=O)N2CCC(C)CC2)cc1,-7,-21,102,99
O=C1NC(=O)N(CCc2ccc(F)cc2)C(=O)/C1=C\c1ccc(O)c(O)c1,-33,51*,100,108
O=C1c2ccccc2C(=O)N1Cc1csc(-c2cccs2)n1,5,6,101,103
COC(=O)c1c(N)sc2c1CCc1ccccc1-2,-32,66,100,100
COc1ccc(OC)c2c1CC(C)(C)N=C2SC,-28,-10,103,106
CC1(C)Cc2cccc(OCC(O)CNCc3ccccc3)c2O1 (configuration not stated),·,0,104,107
Cc1sc2nc3scc(CC(=O)NCCO)n3c(=O)c2c1C,-7,-11,101,102
COc1ccc(-c2noc(CC(=O)Nc3cccc(OC)c3)n2)cc1,-14,-10,106,103
COc1ccc(S(=O)(=O)N(CC(=O)NCC2CCCO2)c2ccc(C)cc2)cc1OC (configuration not stated),-30,4,104,100
CCn1cc(CCCC(=O)N2CCCC2)c2ccccc21,0,26,105,110
CC(NS(=O)(=O)c1ccccc1)C(=O)Nc1ccccc1F (configuration not stated),0,3,100,101
CCOP(C)(=O)C1(C(=O)OCc2ccccc2)CC1 (configuration not stated),-66,-9,101,101
CCN1C(=O)N(CC)C2C1N(C)C(=O)N2C(C)(C)C (configuration not stated),-11,-2,101,98
CCC(C)c1ccccc1NC(=S)Nc1cccnc1 (configuration not stated),-9,·,107,110
CC(=O)N(/C=C1\SC(=S)N(Cc2ccccc2)C1=O)c1ccccc1,-66,-13,105,107
CSc1nc2ccc(NC(=O)CCNC(C)=O)cc2s1,3,8,106,107
CCN(C(=O)Cc1c(C(=O)O)[nH]c2ccc(Cl)cc12)c1ccc(C)c(C)c1,-12,-8,103,107
Cc1cccn2c(=O)c3cc(C(=O)N(C)Cc4ccccc4)sc3nc12,0,18,99,101
N#Cc1c(SCCCOc2ccccc2)sc2c(=O)[nH]c(=O)[nH]c12,21*,·,103,103
Cc1cc(C(=O)N2CCN(C(c3ccccc3)c3ccccc3)CC2)on1,2,-2,101,100
CC(OC(=O)c1nn(C)c(=O)c2ccccc12)C(=O)N1CCCC1 (configuration not stated),-16,-6,102,107
Cn1c2ccccc2c2nnc(SCCCC(=O)c3ccc(F)cc3)nc21,11,1,101,100
Nc1[nH]n(-c2ccccc2)c(=O)c1C1=NCCCCC1,0,6,100,101
Cc1cc(/C=C(\C#N)C(N)=S)c(C)n1C1CC1,-360,6,101,107
# Continued:
SMILES,MenB inh,Mtb MbtI inh,Polio RdRp inh,Polio RdRp inh intensity
Cc1nnc(SCC(=O)NC(C)c2ccc(CC(C)C)cc2)n1N (configuration not stated),-16,12,106,106
COc1ccccc1C1CC(=O)Nc2cc3c(cc21)CCC3 (configuration not stated),-17,0,99,103
COc1ccccc1-c1nnc(CC(=O)O)o1,-17,57,101,104
Nc1ccc(S(=O)(=O)N2CCSC2C(=O)O)cc1 (configuration not stated),29,-5,101,102
COCCN(Cc1nc2ccccc2c(=O)[nH]1)C(=O)c1ccc(S(C)(=O)=O)cc1,-28,-5,101,105
Cc1ccc(C)c(SCC(=O)NC(C)C(c2cccs2)N2CCCC2)c1 (configuration not stated),·,3,99,103
CCOC(=O)C1CCCN(c2cc(C)nc3cc(-c4ccc(Cl)cc4)nn23)C1 (configuration not stated),-3,-3,102,104
COc1cc(CN2c3ccccc3N3CCCCCC32)cc(OC)c1OC (configuration not stated),-28,4,105,102
Cc1cc(C)nc(SCc2ccccc2C(=O)N2CCN(Cc3ccc4c(c3)OCO4)CC2)n1,-3,15,99,104
CCC(C)NC(=O)Cn1cnc2onc(-c3ccc(Cl)cc3)c2c1=O (configuration not stated),8,-2,101,103
Cc1cccc(-n2nnc(-c3ccc(C(C)(C)C)cc3)n2)c1,-9,-4,104,109
CC1C(c2ccc(F)cc2)=NOC1C(=O)O (configuration not stated),1,2,101,101
O=C1C2=C(C(=O)N1c1ccc(Br)cc1)C(c1ccccc1)=NCCN2,6,-5,107,112
O=C(O)CCc1cccnc1,-10,-8,106,99
Cc1cnn(C(=S)NCc2ccco2)c1,-9,47,98,104
COc1ccc(S(=O)(=O)NCc2csc(-c3ccccc3)n2)cc1,-9,5,99,102
CCc1ccc(C(=O)Nc2ccc(S(N)(=O)=O)cc2)cc1,-2,1,99,103
c1coc(-c2nc3nc4ccccc4nc3n2-c2ccc3c(c2)OCCO3)c1,-22,-17,·,·
CC(CCc1ccccc1)NC(=O)COc1ccc(-n2cnnn2)cc1 (configuration not stated),-39,-3,101,104
O=C(c1ccccc1Oc1ccccc1)N1CCn2c1nc1ccccc12,-17,-1,104,107
Cc1ccccc1Nc1nc(N)nc(CNc2cccc(F)c2)n1,-11,-3,102,100
Cc1cc(C)n(-c2ccc(CSc3nnc(-c4ccc(OC(F)F)cc4)o3)cc2)n1,2,-11,103,107
Oc1ccc2c(c1)c(-c1ccccc1)nn2-c1ccccc1,-34,117,104,102
N#C/C(=C\c1ccsc1)C(=O)NCc1ccco1,2,22,104,101

# Four entries from above, field by field.
O=C1C2=C(C(=O)N1c1ccc(Br)cc1)C(c1ccccc1)=NCCN2
  MenB inh: 6 | Mtb MbtI inh: -5 | Polio RdRp inh: 107 | Polio RdRp inh intensity: 112
COc1ccc(S(=O)(=O)NCc2csc(-c3ccccc3)n2)cc1
  MenB inh: -9 | Mtb MbtI inh: 5 | Polio RdRp inh: 99 | Polio RdRp inh intensity: 102
CC(CCc1ccccc1)NC(=O)COc1ccc(-n2cnnn2)cc1 (configuration not stated)
  MenB inh: -39 | Mtb MbtI inh: -3 | Polio RdRp inh: 101 | Polio RdRp inh intensity: 104
Oc1ccc2c(c1)c(-c1ccccc1)nn2-c1ccccc1
  MenB inh: -34 | Mtb MbtI inh: 117 | Polio RdRp inh: 104 | Polio RdRp inh intensity: 102
